# Screening results deposited in PubChem by several laboratories.
# Hsc70 ATP site: Hsc70 inhibitors, probe displacement, primary screen, biochemical, fluorescence polarization (AID 568) | Hsc70 fluorescence polarization, probe displacement; higher % means a stronger effect; strong numbers were not always called active | displacement, % at 20 µM, or IC50 in µM where a hit was titrated | 83,000 tested, under 10 active;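 active means displacement above 50% without optical interference and an IC50 on retest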;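 further: ATPase domain with a fluorescein-tagged ATP probe; 0% = vehicle and 100% = excess ADP; read after one hour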
# WNV NS2B-NS3 inh: blocks West Nile virus NS2B-NS3 protease activity; WNV NS2B-NS3 protease, fluorogenic substrate Ex360/Em465; active compounds read low; z-score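 (tested at a level between 10 and 100 µM)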; AID 577; P06935; 65,000 tested, 0.18% active;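 active means z-score at -3 or under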;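 further: score is relative to mean and spread of the compound wells of a plate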
# Target sequence (P06935 1371-1501 limits assumed): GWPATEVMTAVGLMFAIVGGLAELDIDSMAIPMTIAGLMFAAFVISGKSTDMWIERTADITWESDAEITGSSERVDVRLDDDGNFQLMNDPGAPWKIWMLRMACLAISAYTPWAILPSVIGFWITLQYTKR
# Target sequence (P06935 1502-1679 limits assumed): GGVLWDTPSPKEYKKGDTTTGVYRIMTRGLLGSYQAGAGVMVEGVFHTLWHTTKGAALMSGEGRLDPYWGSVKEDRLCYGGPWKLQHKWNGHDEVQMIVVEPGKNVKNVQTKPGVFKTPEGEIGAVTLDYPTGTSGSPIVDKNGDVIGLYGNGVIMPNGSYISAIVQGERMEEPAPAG
# MT1-MMP promoter: MT1-MMP gene expression reporter suppression – cell-based, luciferase reporter, luminescence (AID 618) | MT1-MMP promoter luciferase reporter cells, luminescence | calls from a first round at 10 µM; hits with a dose series show EC50 in µM | 87,000 tested, 0.62% active;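 active means over half of the reporter light lost at 10 µM or EC50 under 50 µM; inactive means the rest and hits that failed the dose series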;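 further: actives suppress MT1-MMP promoter-driven transcription so potencies describe inhibitors; HT1080 fibrosarcoma cells; overnight exposure; toxic or luciferase-blocking compounds were not removed from the actives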
# Numbers without * were called inactive; i = inactive; / = not tested or not shown. Not all compounds are listed; rates above refer to the full screens.
SMILES	Hsc70 ATP site	WNV NS2B-NS3 inh	MT1-MMP promoter
CCOC(=O)c1nn(-c2ccccc2)c(=O)c(C#N)c1C	1.8%	-0.63	i
Cn1c(C(=O)N2CCc3ccccc3C2)cc2oc3ccccc3c21	-2.0%	-0.63	i
CCOc1ccc(Br)cc1/C(C)=N\NC1=NCCN1	2.6%	/	i
COc1ccc(Cn2nnc(C(=O)Nc3ccc(F)cc3)c2N)cc1	2.8%	1.6	i
CCc1n[nH]c(=S)n1/N=C/c1ccc2c(c1)OCO2	3.6%	/	i
CCOC(=O)c1ccc(N2C(=O)CC(N3CCC(C(=O)OCC)CC3)C2=O)cc1 (stereo not given)	5.2%	-1.1	i
CCOc1ccc(NC(=O)NCCN2C(C)CCCC2C)cc1 (stereo not given)	-1.3%	1.6	i
COc1ccc(Nc2oc(-c3ccccc3Cl)nc2C#N)cc1	-1.0%	0.5	i
Cc1cc2oc(=O)cc(CN3CCC(C)CC3)c2c(C)c1Cl	-3.6%	-0.14	i
CCN(CC)CCNC(=O)c1cc(S(C)(=O)=O)ccc1OC	-1.9%	0.24	i
Cc1ccc(S(=O)(=O)N2CCC(C(=O)N[C@H](C(=O)NCC3CCCO3)C(C)C)CC2)cc1 (stereo not given in full)	0.5%	-1.1	i
COc1ccc(NC(=O)Cn2nnc(-c3ccc(CN4CCOCC4)cc3)n2)c(OC)c1	1.0%	0.33	i
CN(C)c1ccc(CN2CCCCC2)cc1	1.7%	/	i
O=c1[nH]n(-c2cccc3cccnc23)c(=O)c2ccccc12	-5.0%	0.67	i
CC1(C)CC(=O)C(C=Nc2ccc(Cl)cn2)=C(O)C1	-4.3%	-1.7	i
CC1(C)Cc2c(C#N)c(OCC(=O)c3ccccc3)nc(-c3ccoc3)c2CO1	-2.3%	-0.68	i
COc1ccccc1N(CC(=O)NCc1ccccc1)C(=O)CCC(=O)Nc1ccccn1	-2.2%	/	i
Cc1nc2c(C(=O)NCc3ccc(F)cc3)c[nH]n2c(=O)c1Cl	-8.4%	-0.36	i
CC(NS(=O)(=O)c1ccc(F)cc1)C(=O)NCc1ccncc1 (stereo not given)	-1.0%	0.48	i
Clc1ccc(-c2noc(CCCOc3ccccc3)n2)cc1	1.6%	/	i
O=C(CN1C(=O)c2ccccc2C1=O)Nc1ccc(S(=O)(=O)NCC2CCCO2)cc1 (stereo not given)	-4.4%	0.39	i
CCOC(=O)c1ccc(NC(=O)N2CCN(S(C)(=O)=O)CC2)cc1	11%	-0.08	i
Cc1cc(NS(=O)(=O)c2ccc(NC(=O)CCCOc3ccccc3)cc2)no1	-2.1%	-1.2	i
Cc1cccc(-c2noc(CCC(=O)Nc3ccccc3)n2)c1	1.8%	-0.5	i
CCN(CC)C(=O)CSc1nnc(-c2ccc(S(=O)(=O)NCc3ccccc3Cl)cc2)o1	-5.1%	-0.22	i
O=P(O)(O)c1ccccc1OCCOCCOc1ccccc1P(=O)(O)O	-7.1%	0.85	i
Cc1nc(-c2cnn(-c3ccccc3)c2)c2cc(C)oc2n1	4.9%	-0.14	i
Clc1ccc(OCc2nc(-c3ccncc3)no2)c(Cl)c1	-1.0%	0.73	i
CC1CN(C(=O)CN2C(=O)NC3(CCCCCC3)C2=O)CC(C)O1 (stereo not given)	3.5%	/	i
CC(C)(C)n1nc2c(c1NC(=O)c1ccc(S(=O)(=O)N3CCCCC3)cc1)CS(=O)C2 (stereo not given)	-6.8%	1.4	i
CC(C)(C)C(=O)Nc1nc(-c2ccccc2)ns1	-0.4%	/	i
Cc1nc2c(C)cccn2c1/C(O)=C1\C(=O)C(=O)N(CCN(C)C)C1c1ccncc1 (stereo not given)	3.8%	-0.79	i
CCCSc1nnc2n(N)c(=O)c3ccccc3n12	-1.2%	/	i
Cc1cc(=O)n2nc(-c3ccccc3)sc2c1C#N	6.0%	-0.41	i
CN(C)S(=O)(=O)c1ccc(/C(O)=C2/C(=O)C(=O)N(Cc3cccnc3)C2c2ccco2)cc1 (stereo not given)	-4.2%	1.2	i
CC(C(=O)N1CCCCC1)n1sc2ccccc2c1=O (stereo not given)	-1.0%	-0.6	i
Cc1cc(NC(=O)COc2ncnc3sc(C)c(C)c23)no1	-0.3%	0.41	i
CCCOP(=O)(c1ccc(N(C)C)cc1)C(O)c1ccccc1OC (stereo not given)	-0.6%	0.15	i
COC(=O)CSc1nnc(-c2ccncc2)n1N	-4.8%	-0.62	i
O=C(Nc1nc2ccccc2n1CCN1CCCCC1)c1ccc(Cl)cc1	-1.3%	/	i
CCCOc1ccc(N2C(=O)CC(N3CCN(c4nc5ccccc5s4)CC3)C2=O)cc1 (stereo not given)	4.1%	-0.61	i
O=C(O)CCCC(=O)OCCCCc1cccs1	-0.8%	2.7	i
CS(=O)(=O)N(Cc1ccco1)Cc1ccccc1Cl	-8.9%	0.44	i
CC(C)(C)SCCNC(=O)CN1C(=O)c2ccccc2S1(=O)=O	-5.6%	0.35	i
COc1ccc(N2CCN(CC(=O)Nc3cc4c(cc3C(C)=O)OCO4)CC2)cc1	6.2%	-1.3	i
COc1ccc(C2C(C#N)=C(N)Oc3cc(C)n(Cc4ccco4)c(=O)c32)cc1 (stereo not given)	-0.1%	/	i
CCCN(CCC)c1nc(C)cc(C(C#N)c2nc3ccccc3o2)n1 (stereo not given)	-15%	-0.84	i
CCC1(CC)C(=O)NC(=O)NC1=Nc1cccc(OC)c1	-10%	-0.22	i
CCOCCCNC(=O)CN1C(=O)CSc2ccccc21	0.1%	-1.4	i
CC(C)N(Cc1nc(-c2ccccc2)no1)C(=O)C1CCCCC1	2.3%	/	i

# Given field by field: entries from further up
SMILES: CC(C)(C)n1nc2c(c1NC(=O)c1ccc(S(=O)(=O)N3CCCCC3)cc1)CS(=O)C2 (stereo not given)
  Hsc70 ATP site = -6.8%
  WNV NS2B-NS3 inh = 1.4
  MT1-MMP promoter = i
SMILES: O=C(O)CCCC(=O)OCCCCc1cccs1
  Hsc70 ATP site = -0.8%
  WNV NS2B-NS3 inh = 2.7
  MT1-MMP promoter = i
SMILES: Cc1cc2oc(=O)cc(CN3CCC(C)CC3)c2c(C)c1Cl
  Hsc70 ATP site = -3.6%
  WNV NS2B-NS3 inh = -0.14
  MT1-MMP promoter = i
SMILES: Cc1cc(NC(=O)COc2ncnc3sc(C)c(C)c23)no1
  Hsc70 ATP site = -0.3%
  WNV NS2B-NS3 inh = 0.41
  MT1-MMP promoter = i

# Remaining list, next part
SMILES	Hsc70 ATP site	WNV NS2B-NS3 inh	MT1-MMP promoter
O=C(Nc1ccccc1)c1ccc(S(=O)(=O)NCc2ccco2)cc1	1.0%	2.2	i
COC(=O)CNS(=O)(=O)c1ccc(Cc2ccc(S(=O)(=O)NCC(=O)OC)cc2)cc1	-3.0%	-0.09	i
O=C(CSc1ncn[nH]1)Nc1ccccc1-c1ccccc1	-1.9%	/	i
COc1ccc(C2C3=C(CC(C)(C)CC3=O)Nc3cc4c(cc32)OCO4)cc1 (stereo not given)	1.7%	/	i
CC(C)CC(=O)NCCCN1CCN(CCCNC(=O)CC(C)C)CC1	1.5%	/	i
Cc1cc(CN2C(=O)c3ccccc3C2=O)no1	42%	1.5	i
Cc1cccc(Cn2c(N(C)CCO)nc3c2c(=O)[nH]c(=O)n3C)c1	-1.2%	-0.24	i
CCC(=O)OC1CSc2nc3ccccc3n2C1 (stereo not given)	1.7%	-0.22	i
COc1cc(C2C(C#N)=C(N)Oc3n[nH]c(-c4ccccn4)c32)cc(OC)c1OC (stereo not given)	1.8%	0.28	i
CC(C)(C)c1ccc(OC2=CS(=O)(=O)c3ccccc32)cc1	0.1%	/	i
CCc1nnc(NC(=O)CSc2nnc(-c3ccoc3C)n2CC(C)C)s1	-2.2%	0.57	i
COC(=O)c1ccc(N2CCN(C)CC2)c(NC(=O)COc2ccc(OC)cc2)c1	-3.5%	0.99	i
O=C1CC(=O)CC(c2ccccc2Cl)C1	-5.6%	0.08	i
CC(C)CCNC(=O)CSc1nnc(-c2ccc(S(=O)(=O)N3CCCC3)cc2)n1C	2.8%	/	i
O=C(NCc1ccc2c(c1)OCO2)c1cccc(S(=O)(=O)N2CCOCC2)c1	-1.2%	-0.53	i
Cc1cccc2nc(Cn3c(=O)n(CCC(=O)NCc4ccco4)c(=O)c4sccc43)cc(=O)n12	1.5%	0.63	i
Cn1c(CN2CCCC2)nc2cc(NC(=O)Nc3ccccc3)ccc21	1.3%	-0.7	i
O=C(NCc1ccco1)c1cnc2ccccn2c1=O	-1.5%	-0.76	i
O=S(=O)(c1ccc(Nc2ccc(-c3ccc4c(c3)OCCO4)nn2)cc1)N1CCCC1	0.8%	/	i
CC(Sc1nnc(-c2ccc(C(C)(C)C)cc2)n1C)C(N)=O (stereo not given)	-1.4%	/	i
COc1cc(C(=O)N2CCN=C2c2ccccc2)cc(OC)c1OC	1.5%	0.2	i
CN(C)c1nc2n(c(=O)n1)C(C#N)CS2 (stereo not given)	-0.1%	0.06	i
Cc1ccc2[nH]c(=O)c(C(c3nnnn3C(C)(C)C)N(Cc3ccco3)CC3CCCO3)cc2c1 (stereo not given)	-4.9%	-0.94	i
O=C(NC1CCCC1)c1cnn2c(C(F)(F)F)cc(-c3ccc4c(c3)OCO4)nc12	106%	0.37	i
O=C1CCc2cc(S(=O)(=O)N3CCN(c4cccc(Cl)c4)CC3)ccc2N1	-10%	-0.63	i
COc1ccc(C2C(C(=O)NC(C)C)c3ccccc3C(=O)N2C)cc1OC (stereo not given)	-8.3%	-0.02	i
CC(C)NC(=O)C(C)n1cccc1C(=O)c1ccccc1 (stereo not given)	2.0%	-1.2	i
O=S(=O)(Nc1cccc2cn[nH]c12)c1ccc(F)cc1	1.9%	0.24	i
Cn1cnnc1SCC(=O)N1CCC(Cc2ccccc2)CC1	3.6%	-0.54	i
Cc1ccccc1-c1nc(CS(=O)(=O)CC(=O)NCCCN2CCCC2)c(C)o1	2.0%	-1.3	i
Cn1c(=O)c2c(nc(SCC(=O)O)n2Cc2cccc(C(F)(F)F)c2)n(C)c1=O	-3.7%	-0.08	i
Cn1c(=O)c2cn3c(c2n(C)c1=O)C(c1ccccc1)CC(c1ccccc1)=N3 (stereo not given)	-0.6%	0.49	i
Cc1cc(=O)oc(C)c1C(=O)NC12CC3CC(CC(C3)C1)C2	8.4%	0.41	i
COc1cccc(C2/C(=C(\O)c3ccc4c(c3)OCCO4)C(=O)C(=O)N2CCN(C)C)c1 (stereo not given)	1.0%	-0.15	i
CC(=O)c1c(C)[nH]c(C(=O)COC(=O)CN(C)S(=O)(=O)c2ccc(Cl)cc2)c1C	-3.1%	/	i
COc1ccc(CCNC(=O)c2cc(C(C)C)on2)cc1OC	0.1%	-0.51	i
CCOC(=O)N1CCN(S(=O)(=O)c2cc(Br)cc3c2N(C(=O)CC)CC3)CC1	2.2%	0.58	i
CN1CCN(CCCNC(=O)c2cc3c(=O)oc4ccccc4c3s2)CC1	-1.3%	0.73	i
Cc1cccc(NC(=O)CN(C)S(=O)(=O)c2cccs2)c1	-1.2%	/	i
CCCC(=O)N1CC(=O)Nc2ccc(C)cc2C1c1ccc(F)cc1 (stereo not given)	7.8%	0.34	i
COc1cccc(OCC(O)CN2CCN(CCO)CC2)c1 (stereo not given)	-3.9%	0.21	i
CO/C([O-])=N/c1c[n+](-c2ccc(C)cc2)no1	0.8%	0.25	i
COC(=O)C1=C(C)NC(=O)NC1c1cc(Cl)ccc1OC (stereo not given)	4.2%	0.66	i
CCOC(=O)c1c(NC(=O)Cc2cccs2)sc(C)c1C	-1.4%	-1.4	i
O=c1c2[nH]c3ccccc3c2ncn1CCC1=CCCCC1	-1.6%	0.3	i
CCC(c1nnnn1Cc1ccco1)N(CCc1ccccc1)Cc1cc2ccc(OC)cc2[nH]c1=O (stereo not given)	-23%	-1.8	i
COC(=O)CSc1nnc(CSc2nc(C)cc(C)n2)n1Cc1ccco1	4.9%	-0.07	i
COC(=O)C1=C(C)NC(C)=C(C(=O)OC)C1c1ccc(N(C)C)cc1	-0.1%	1.4	i
COc1cccc(/C=c2/s/c(=C(\C#N)C(=O)N3CCOCC3)n(-c3ccccc3)c2=O)c1	-6.3%	/	i
CC1(C)CC(=O)C(C=NCCCN2CCOCC2)=C(O)C1	0.3%	0.01	i

# The list continues:
SMILES	Hsc70 ATP site	WNV NS2B-NS3 inh	MT1-MMP promoter
CCN1CCN(C(c2cc3cc4c(cc3[nH]c2=O)OCO4)c2nnnn2C(C)(C)CC)CC1 (stereo not given)	-5.6%	1.3	i
c1ccc(-n2ncc3c2ncn2c(C4CCCCC4)nnc32)cc1	3.8%	-0.2	i
O=C1Nc2ccccc2C(O)(C(=O)NCc2ccc3c(c2)OCO3)N1c1ccccc1 (stereo not given)	2.2%	0.26	i
Cc1ccc(C(=O)NCCc2nnc(SCC(=O)Nc3nc(-c4ccccc4)cs3)n2C)cc1	-8.5%	/	i
Cc1cnc(NC(=O)COc2ccccc2)s1	3.3%	-1.4	i
